Source: PubChem BioAssay
Mtb hypoxia rep: PubChem AID 1159583. M. tuberculosis hypoxia-regulated fluorescent reporter, fluorescence. fluorescence inhibition, % (test concentration not listed). 0.1% of 300,000 active;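 active = 35 to 45% if threefold the growth effect, above 45% if 1.5-fold the growth effect; inactive = the rest, general growth blockers included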;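 also: wells of about 50 µL received 100 nL stock; 0% = vehicle wells and 100% = reference inhibitor wells; whole bacteria with a GFP reporter of the hypoxia response; strong numbers were not always called active; many hits fall short of the cut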
RN4220 kill: growth inhibition of S. aureus RN4220, primary screen, OD600; 16 h; inhibition, % (test concentration not listed); 0.33% of 330,000 active;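 active = z-score of -3 or lower and OD600 up to 0.18 on both plates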;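 also: plate controls were untreated cells for no effect and reference antibiotic for full effect; stock transfer was 100 nL into about 80 µL; one replicate is shown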
PrP 5UTR inh: inhibition of PrP 5' UTR reporter expression; cell-based PrP 5' UTR mRNA reporter, plate reader; inhibition, % (concentration not given with the values); 0.35% of 340,000 active;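 active = every replicate at 50% or more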;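 also: 0 = median of the neutral control wells; tested in H4 reporter cells; numbers are from one replicate; inactives centre near -14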
BJeLR lethal: MLPCN primary cell-based screen for lethality selective to Ras in HRASV12 cells. inhibition, % (no concentration beside the values). BJeLR (HRASV12) viability, CellTiter-Glo ATP luminescence, 48 h; reference of the scale not given here. 0.17% of 300,000 active. AID 1554, 2009;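 active = replicate mean above 50%; inconclusive = above 50% but judged a plate artefact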;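 also: 50 nL library stock added to about 25 µL; numbers are from one replicate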
Autofluor counter: counter-screen for toxin protease inhibitors: compound fluorescence. AID 624483. 3.1% of 360,000 active. fluorescence intensity (no concentration beside the values). compound autofluorescence counterscreen, microsphere flow cytometry; active compounds read high;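 active = at least 3 SD above the mean of all compounds, about 16000 in these data; inconclusive = too few beads counted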;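 also: 100 nL of 1 mM stock went into each well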
Sa ugtP lethal: growth inhibition of ugtP-null S. aureus, primary screen, RN4220 ugtP deletion, OD600 | 16 h; some inactives read as strong as hits | growth inhibition, % (concentration not given with the values) | 0.54% of 330,000 active;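 active = z-score under -3 and OD600 up to 0.15 on both plates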;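 also: plate controls were untreated wells for no effect and antibiotic for full effect; wells of about 80 µL received 100 nL stock; the first replicate is given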
Mtb hypoxia rep growth: second read-out of Mtb hypoxia rep, no call of its own (marks repeat the call); growth inhibition, %; measured here: M. tuberculosis growth (absorbance);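 0% = vehicle and 100% = reference antibiotic; read after six days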
Numbers without * were called inactive; ? = inconclusive; . = no result given.

SMILES	Mtb hypoxia rep	Mtb hypoxia rep growth	RN4220 kill	PrP 5UTR inh	BJeLR lethal	Autofluor counter	Sa ugtP lethal
N#Cc1c(NC(=O)CCCC(=O)O)sc2c1CCCCC2	-9	13	3.1	46	-21	2108	2
COc1ccc(C2=C(Nc3ccccc3)c3ccccc3C2=O)cc1	7	5	3.7	-10	-16	7799	-15
CCOc1ccc(NC(=O)c2ccc(F)cc2F)cc1	4	19	0.3	-71	9	3090	-2
CCCCN1CC(=O)N2C3c4cc(Br)ccc4OCC3C(C(=O)OCC)[C@]2(C)C1=O (some centres undefined)	21	11	16	.	.	.	23
CCOc1ccccc1N(CC(=O)NCCOC)C(=O)CCC(=O)Nc1ccccn1	12	6	8.6	-8	6	2682	1
Cc1nc(Cl)c(C#N)c2c1CCCC2	-4	-8	5.0	-11	-15	4183	5
O=C(CN1CC(=O)Nc2ccccc21)Nc1ccc(F)c(F)c1	13	19	0.4	-15	-15	4375	12
CC(=O)c1cc(-c2ccccc2)n(CC(=O)N2CCCCC2)c1C	1	1	3.0	-10	6	8075	8
O=c1c(Br)c(Br)cnn1-c1ccccc1	.	.	17	-7	.	4600	0
Cc1cccc(C(=O)Nc2ccc(C(=O)N/N=C/c3ccc4c(c3)OCO4)cc2)c1	.	.	.	-3	-6	3854	.
CC(=O)N1CCCc2cc(S(=O)(=O)N(CC(C)C)CC(C)C)ccc21	.	.	8.4	-16	18	4553	2
O=C(c1ccc(OC2CCN(Cc3ccccn3)CC2)cc1)N1CCCCO1	15	8	6.7	-28	3	2309	5
Cc1ccc(NC(=O)c2ccc3c(c2)C(=O)N(CC2CCCO2)C3=O)cc1C (centres undefined)	4	0	7.3	-13	6	2763	1
Cc1ccc(C(=O)NN=C2CCCCCC2)s1	10	-1	8.7	-6	3	4114	10
CON=C(c1nonc1N)N1CCN(c2ccc(Cl)cc2[N+](=O)[O-])CC1	-3	-5	-3.9	.	.	.	-23
CCOC(=O)C1=NN(C(C)=O)C2C(=O)N(CC)C(=O)C12 (centres undefined)	0	-2	2.6	.	-2	.	0
COc1ccc(N2CCN(c3nc(NCCO)nc(N4CCOCC4)n3)CC2)cc1	7	7	6.3	-7	1	7041	18
Cc1cccc(C=NNC(=O)c2ccc(F)cc2)n1	12	9	1.8	.	.	.	-1
CCOc1ccc(Nc2nc(Cc3nnc(SCC(=O)N(CC)CC)n3C)cs2)cc1	-71	0	0.3	0	0	6762	12
C/C(=N\NC(=O)c1ccc(O)cc1)c1cccc(NC(=O)c2ccc(Cl)cc2)c1	.	.	.	-27	3	3161	.
O=C(N/N=C/c1sc(=O)[nH]c1-[n+]1ccccc1)c1ccccc1[O-]	.	.	.	-7	-1	4980	.
COc1ccc2cc(C(=O)N3CCN(C)CC3)[nH]c2c1	-6	-10	1.9	-40	0	3103	2
O=C(NCCN1CCN(Cc2ccccc2Cl)CC1)Nc1ccccc1	1	17	-0.3	-20	-7	23034*	-1
Cc1nc2ccccc2c(=O)n1CC(=O)N1CCOCC1	3	6	1.8	-24	-2	3530	4
COc1ccc(-n2nnc3c(SCC(=O)NCc4ccco4)ncnc32)cc1	0	8	6.6	-3	-5	?	10
C=CCc1cc(/C=N\NC(=O)CSc2nnc(CCCc3ccc(OC)c(C)c3)o2)cc(OC)c1O	.	.	.	-11	-2	2101	.
Cn1cc(Cl)c(-c2n[nH]c(=S)n2-c2ccc(F)cc2)n1	-9	3	4.1	-4	-9	2136	2
O=C(CCl)N(c1ccc(Cl)cc1)c1c[nH]c2ccccc12	36*	24*	90*	-18	17	?	97*
CCOc1ccc(N(CC(=O)NCC2CCCO2)S(=O)(=O)c2ccc(OC)c(OC)c2)cc1 (centres undefined)	4	10	-8.0	-12	4	2948	-5
c1ccc2c(c1)[nH]c1ccccc12	.	.	5.0	-9	0	4939	-3
COc1cc(OC)cc(C(=O)NCC(=O)OCC(=O)c2ccc3c(c2)-c2ccccc2C3)c1	8	1	9.8	-14	-5	2706	-9
Cc1ccc(C)c(S(=O)(=O)Nc2ccc(S(=O)(=O)Nc3ncccn3)cc2)c1	0	2	-0.5	-15	.	7833	0
FC(F)(F)c1cnc(Sc2nnc(-c3cccs3)n2CC2CCCO2)c(Cl)c1 (centres undefined)	12	3	2.2	-2	-11	20185*	3
CCOC(=O)c1sc(NC(=O)CN(CC)CC)c(C(=O)OCC)c1C	14	3	4.8	-5	6	3137	12
Cc1c(NC(=O)CSC(=S)N2CCCC2)c(=O)n(-c2ccccc2)n1C	-11	-4	-0.2	-27	-3	6921	1
COc1cc(C=NO)cc(Br)c1OS(=O)(=O)c1ccc(C)cc1	4	8	-12	.	.	.	13
CC[C@@]1(C(=O)OC)N[C@H](CN(C)C(=O)c2ccc(F)cc2)[C@@H]2C(=O)N(Cc3ccccc3)C(=O)[C@@H]21	-7	6	3.0	-14	.	4236	2
CCCN(CCC)S(=O)(=O)c1ccc(Cl)c([N+](=O)[O-])c1	7	0	-4.8	-10	3	3347	-2
CC1CCCCN1C(=O)c1cc2c(=O)n3ccccc3nc2s1 (centres undefined)	10	9	5.8	-32	1	5382	4
Cc1cc(C)n(CCNS(=O)(=O)c2ccc(C)c(C)c2)n1	4	1	4.4	-20	-9	5146	0
Cc1cccn2c(=O)c3cc(C#N)c(=N)n(CCN4CCOCC4)c3nc12	2	0	2.7	-24	-3	3020	12
Cc1ccc(S(=O)(=O)/C(C#N)=C/c2c(N3CCN(C)CC3)nc3ccccn3c2=O)cc1	.	.	5.9	-6	2	3766	11
Cc1cc(C(=O)OCC(=O)Nc2c(Cl)cccc2Cl)c(C)o1	6	9	2.5	-22	.	3057	3
Cc1ccc(C)c(-n2ccnc2SCC(N)=O)c1	-9	-1	7.0	-22	15	4054	7
CC1(C)CC(=O)C(C=NCC2CCNCC2)=C(O)C1	.	.	0.6	-9	1	4183	5
CN(Cc1c(F)cccc1Cl)C(=O)c1ccc(NC(=O)CC2SC(N3CCCC3)=NC2=O)cc1 (centres undefined)	11	-1	0.0	0	1	4378	7
COc1ccc(-n2c(SCC#N)nc3ccccc3c2=O)cc1	9	10	11	-11	0	3386	-1
Cc1csc2nc(CNS(=O)(=O)c3cccnc3)cn12	1	-2	3.3	-13	4	9183	5
COc1ccc(NC(NC(=O)c2ccc(OC)cc2)C(Cl)(Cl)Cl)cc1 (centres undefined)	.	.	.	-7	2	3493	.
CCOc1ccc(N2C(=O)CC(N3CCN(c4ccc([N+](=O)[O-])cc4)CC3)C2=O)cc1 (centres undefined)	13	7	3.1	-18	-3	3715	6
CCC1Oc2ccc(C)cc2N(CC(=O)N(Cc2ccc(C)o2)C2CC(C)(C)NC(C)(C)C2)C1=O (centres undefined)	6	10	-3.3	-9	-9	3999	-4
COc1cc(SC)ccc1C(=O)Nc1ccc(C)cc1C	8	14	0.4	-67	-9	2468	6
CC(N=C1NS(=O)(=O)c2ccccc21)C(=O)OCC(=O)N(C)C1CCS(=O)(=O)C1 (centres undefined)	0	0	3.4	0	.	5003	2
CC(C)c1nnc(NC(=O)c2ccc3ccccc3c2)s1	2	0	5.4	-78	-14	4237	0
O=C(COc1ccccc1F)Nc1ccc(S(=O)(=O)NCc2ccco2)cc1	.	.	4.9	-8	-2	4275	-3
Nc1c(Cl)c(Cl)nc(C(=O)N/N=C/c2ccco2)c1Cl	.	.	.	-13	2	3575	.
O=[N+]([O-])CC(=Nc1ccc(Cl)cc1)N/N=C\c1oc(O)c2ccccc12	.	.	.	-15	-4	3495	.
COc1ccc(C(=O)OC(C)C(=O)NC(C)CCc2ccccc2)cc1[N+](=O)[O-] (centres undefined)	14	8	1.0	-24	2	5493	4
CCOc1ccc(S(=O)(=O)N2CCCC(C(=O)NCc3ccncc3)C2)cc1C (centres undefined)	7	8	3.8	-2	-1	6230	3
CCOC(=O)Cc1csc(NC(=O)NC2(C(F)(F)F)Oc3ccc(Cl)cc3O2)n1 (centres undefined)	.	.	1.1	-25	7	2650	-6
Continuation:
SMILES	Mtb hypoxia rep	Mtb hypoxia rep growth	RN4220 kill	PrP 5UTR inh	BJeLR lethal	Autofluor counter	Sa ugtP lethal
O=C(COc1ccc(-c2ccccc2)cc1)NNC(=O)Nc1ccc(F)cc1F	6	5	2.9	6	4	5948	-3
COC(=O)c1ccc(CSc2nnc(-c3ccc4c(c3)OCO4)n2-c2ccccc2)o1	13	13	4.5	-28	-1	2011	0
Cc1ccc(C)c(OCC(=O)N2CCN(c3ncccn3)CC2)c1	5	1	3.8	-7	.	8808	2
Cc1cc(Nc2ccccc2)n(-c2ccc(Br)cc2)n1	16	9	-14	-8	0	3368	0
COc1cccc(NC(=S)N2CCCC2c2ccc(OC)c(OC)c2)c1 (centres undefined)	-6	7	1.4	-16	-3	4890	-1
Cc1ccc(C(C(=O)NCCc2ccccc2)N(C(=O)c2csnn2)C2CC2)o1 (centres undefined)	2	-3	7.1	-9	-12	4340	12
NC(=O)c1ccc(NC(=O)CNc2cc(S(=O)(=O)N3CCOCC3)ccc2N2CCCC2)cc1	20	38	2.5	-12	.	3996	-1
Clc1ccc(-c2cn(-c3ccc(Cl)cc3)c3[n+]2CCCCC3)cc1	19	8	1.5	-7	8	6048	12
CCC1(CC)C(=O)C2=C3C1[C@H](C(=O)OC)C=C(C(=O)OC)C[C@H]3[C@H]1C(=O)N(Cc3ccccc3)C(=O)[C@H]1[C@H]2C (some centres undefined)	5	3	-10	-12	1	3058	-6
Oc1ccccc1/C=N/n1cnnc1	.	.	.	-51	0	2929	.
COc1cccc(/C=N/Nc2nn3cnnc3c3ccccc23)c1	.	.	.	-3	30	4744	.
COc1cccc(CC2(CO)CCCN(Cc3ccccc3Cl)C2)c1 (centres undefined)	16	4	4.6	-3	-3	7182	10
Cc1ccc(S(=O)(=O)N2C(=O)/C(=C3\SC(=S)NC3=O)c3ccccc32)cc1	4	-5	4.1	.	8	.	6
CCOC(=O)CCCc1sc(N)nc1-c1[nH]c(=O)[nH]c1C	-6	-9	1.9	-12	3	2889	3
CCOC(=O)c1ccc(-n2cc(C(=O)c3cccnc3)nn2)cc1	-12	2	-1.3	-9	4	3858	1
COc1ccccc1NC(=O)c1ccccc1C(=O)Nc1ccccc1OC	-3	6	7.3	2	4	4355	15
Cc1ccccc1NC(=O)NC1CCS(=O)(=O)C1 (centres undefined)	9	0	2.8	-8	-1	3712	-2
Nc1nc(CSCc2ccccc2)nc(N2CCOCC2)n1	-1	16	4.7	-37	-3	3487	4
CCO[C@H]1OC(C(=O)O)=C[C@@H](c2ccc3c(c2)OCO3)[C@@H]1CCCO	.	.	.	-28	2	2943	.
CCOc1ccc(NC(=O)c2ccc(NC(=O)C3CCCO3)cc2)cc1 (centres undefined)	-3	-1	12	-1	9	5939	-3

Given with bars between the fields: entries from further up.
canonical_smiles | Mtb hypoxia rep | Mtb hypoxia rep growth | RN4220 kill | PrP 5UTR inh | BJeLR lethal | Autofluor counter | Sa ugtP lethal
Clc1ccc(-c2cn(-c3ccc(Cl)cc3)c3[n+]2CCCCC3)cc1 | 19 | 8 | 1.5 | -7 | 8 | 6048 | 12
CCC1(CC)C(=O)C2=C3C1[C@H](C(=O)OC)C=C(C(=O)OC)C[C@H]3[C@H]1C(=O)N(Cc3ccccc3)C(=O)[C@H]1[C@H]2C (some centres undefined) | 5 | 3 | -10 | -12 | 1 | 3058 | -6
Oc1ccccc1/C=N/n1cnnc1 | . | . | . | -51 | 0 | 2929 | .

Next part:
SMILES	Mtb hypoxia rep	Mtb hypoxia rep growth	RN4220 kill	PrP 5UTR inh	BJeLR lethal	Autofluor counter	Sa ugtP lethal
CC1(C)Cc2c(c(N3CCOCC3)nc3sc4c(NCC5CCCO5)nnnc4c23)CS1 (centres undefined)	5	13	23	7	-3	4386	-7
O=C(NCCN1CCN(c2ccccc2)CC1)c1cccn2c(=O)c3ccccc3nc12	8	2	8.0	-18	14	10938	6
CCOc1ccc2oc(C(=O)Nc3nccs3)c(C)c2c1	4	-3	1.7	-62	.	4128	4
Cc1ccc(S(=O)(=O)CCC(=O)NCc2ccccc2Cl)cc1	-6	10	-0.2	-13	-7	3116	1
CC(C)Oc1ccc(S(=O)(=O)N2CCOCC2)cc1NC(=O)c1nn(C)c(=O)c2ccccc12	-5	1	0.7	-21	.	3517	4
COCCCn1c(SCC(=O)N2CCc3ccccc32)nnc1-c1ccoc1C	.	.	-6.4	-10	3	4690	-4
